Screening results as filed in PubChem.
MT1-MMP promoter = inhibitors of MT1-MMP promoter transcription, cell-based, luciferase reporter, luminescence (AID 618). MT1-MMP promoter luciferase reporter cells, luminescence. calls from a first round at 10 µM; hits with a dose series show EC50 in µM. 87,000 tested, 0.62% active;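 active means over half of the reporter light lost at 10 µM or EC50 under 50 µM; inactive means the rest and hits that failed the dose series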;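 further: actives suppress MT1-MMP promoter-driven transcription so potencies describe inhibitors; HT1080 fibrosarcoma cells; overnight exposure; toxic or luciferase-blocking compounds were not removed from the actives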
Hsc70 ATP site = Hsc70 inhibitors, probe displacement, primary screen, biochemical, fluorescence polarization (AID 568). Heat shock cognate 71 kDa protein (Homo sapiens). Hsc70 fluorescence polarization, probe displacement; higher % means a stronger effect; strong numbers were not always called active. displacement, % at 20 µM, or IC50 in µM where a hit was titrated. 83,000 tested, under 10 active;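 active means displacement above 50% without optical interference and an IC50 on retest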;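 further: ATPase domain with a fluorescein-tagged ATP probe; 0% = vehicle and 100% = excess ADP; read after one hour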
WNV protease inh = inhibitors of WNV NS2B-NS3 protease, primary screen, biochemical, fluorogenic substrate. Genome polyprotein (West Nile virus), P06935. z-score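 (tested at a level between 10 and 100 µM)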. 65,000 tested, 0.18% active. fluorogenic substrate Ex360/Em465; hits give low values;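 active means z-score at -3 or under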;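 further: score is relative to mean and spread of the compound wells of a plate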
Target sequence (P06935 1371-1501 limits assumed): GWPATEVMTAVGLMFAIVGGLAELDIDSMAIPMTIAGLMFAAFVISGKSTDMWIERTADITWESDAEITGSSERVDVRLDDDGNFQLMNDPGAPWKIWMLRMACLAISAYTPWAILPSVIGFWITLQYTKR
Target sequence (P06935 1502-1679 limits assumed): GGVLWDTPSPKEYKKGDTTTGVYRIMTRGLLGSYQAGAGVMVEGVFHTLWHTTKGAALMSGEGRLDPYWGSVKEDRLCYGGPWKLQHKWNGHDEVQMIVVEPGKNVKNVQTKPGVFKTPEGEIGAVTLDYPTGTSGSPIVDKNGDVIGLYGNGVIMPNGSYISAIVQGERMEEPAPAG
The depositor's hits bear a star; i = inactive; nt = no result given; + = active, no number.

Sample of the layout:
SMILES | MT1-MMP promoter | Hsc70 ATP site | WNV protease inh
O=S1(=O)CC(O)C(NCc2ccco2)C1 (stereo not given) | i | -2.6% | -0.31
COc1ccc(-c2nc(N)ncc2-c2csc(C)n2)c(O)c1 | i | 0.2% | -1.9

The whole of this part, previewed entries included:
SMILES | MT1-MMP promoter | Hsc70 ATP site | WNV protease inh
O=S1(=O)CC(O)C(NCc2ccco2)C1 (stereo not given) | i | -2.6% | -0.31
COc1ccc(-c2nc(N)ncc2-c2csc(C)n2)c(O)c1 | i | 0.2% | -1.9
CCN1C(=O)/C(=C2\C=Cc3cc(C)ccc3N2CC)OC1=S | i | -9.4% | nt
CCc1ccc(N2CC(C(=O)Nc3nnc(CC)s3)CC2=O)cc1 (stereo not given) | i | 2.6% | nt
Cc1cc(Nc2c(C)cccc2C)n2nc(C)nc2n1 | i | 2.0% | 0.27
Cc1ccc2c(c1)CCCN2C(=O)c1ccoc1C | i | -3.7% | -0.37
Brc1cccc(C2CC(c3ccccc3)n3nnnc3N2)c1 (stereo not given) | i | -1.0% | -0.37
O=C(C1CCN(c2nnnn2-c2ccccc2)CC1)N1CCN(c2ccccc2)CC1 | i | 2.9% | -0.8
NC(=O)c1sc2nc(N3CCCCC3)c3c(c2c1N)CCCC3 | i | 4.6% | 0.28
CCCCC(=O)Nc1ccc(NC(=O)c2cccnc2)cn1 | i | 3.1% | 0.03
CCOc1cc(CNc2ccccc2SC)ccc1O | i | 2.8% | -0.38
CN(C)S(=O)(=O)c1cc(S(=O)(=O)N(C)C)c(Cl)cc1N | i | 4.4% | -1.1
Cc1cc(C)cc(NC(=O)C2CCN(c3nccs3)CC2)c1 | i | -1.2% | 0.51
Cc1ccc(C)c(N2CCN(CC(=O)Nc3ccc4[nH]c(=O)[nH]c4c3)CC2)c1 | i | -6.6% | -0.5
COc1cc(OC)cc(-c2nc(-c3cc4cc(C)ccc4nc3OC)no2)c1 | i | -26% | -0.03
CCOc1cc2[nH]c(=O)n(Cc3ccc(C(=O)NCCOC)cc3)c(=O)c2cc1OCC | i | -2.5% | -1.7
CC(=O)Oc1ccc(C(C)=O)c2c1OCCO2 | i | -2.2% | nt
CCn1c(=O)cc(OCC(=O)Nc2ccc(C)cn2)c2ccccc21 | i | 6.9% | 0.42
CCN1CCN(c2nc3ccccc3nc2C(C#N)S(=O)(=O)c2ccc(C)cc2)CC1 (stereo not given) | i | 1.6% | nt
CCN(CC)S(=O)(=O)c1ccc(Oc2cccc(C(C)=O)c2)nc1 | i | 11% | 1.7

Some of these compounds in order of molar mass, lowest first:
SMILES | MT1-MMP promoter | Hsc70 ATP site | WNV protease inh
CC(=O)Oc1ccc(C(C)=O)c2c1OCCO2 | i | -2.2% | nt
CN(C)S(=O)(=O)c1cc(S(=O)(=O)N(C)C)c(Cl)cc1N | i | 4.4% | -1.1
CCN(CC)S(=O)(=O)c1ccc(Oc2cccc(C(C)=O)c2)nc1 | i | 11% | 1.7
Cc1ccc(C)c(N2CCN(CC(=O)Nc3ccc4[nH]c(=O)[nH]c4c3)CC2)c1 | i | -6.6% | -0.5
CCN1CCN(c2nc3ccccc3nc2C(C#N)S(=O)(=O)c2ccc(C)cc2)CC1 (stereo not given) | i | 1.6% | nt
CCOc1cc2[nH]c(=O)n(Cc3ccc(C(=O)NCCOC)cc3)c(=O)c2cc1OCC | i | -2.5% | -1.7

The results go on:
SMILES | MT1-MMP promoter | Hsc70 ATP site | WNV protease inh
CC(=O)Oc1cccc(N2C(=O)C3C4C=CC(C4=C(C)C)C3C2=O)c1 (stereo not given) | i | 5.8% | 0.35
COc1ccccc1C(=O)NC(CCSC)C(=O)NCC(c1ccco1)N(C)C (stereo not given) | i | 2.4% | 1.8
CCn1c2ccccc2c2nnc(SCC(=O)NCCOC)nc21 | i | 3.4% | 0.3
O=C1c2ccccc2C(=O)N1CCCN1CCN(CCCN2C(=O)c3ccccc3C2=O)CC1 | i | -5.4% | nt
COc1ccc(C2CC(c3ccc(Cl)cc3Cl)Nc3nc(N)nn32)cc1OC (stereo not given) | i | -0.9% | 1.8
Cc1ccc(C(C(=O)NC2CCCC2)N(Cc2ccco2)C(=O)CCC(=O)Nc2cc(C)on2)cc1 (stereo not given) | i | 0.1% | nt
O=c1cnc2ccccc2n1CC1CCCCC1 | i | -2.8% | 0.93
CCOC(=O)c1sc(C)c2c1NC(C)(c1ccccc1)NC2=O (stereo not given) | i | 0.6% | nt
CCCCCCCCCOC(=O)C(CC(=O)O)N1CCOCC1 (stereo not given) | i | -5.1% | nt
Cc1ccc(C2CC(c3cccs3)=NN2C(=O)c2ccc(Br)o2)cc1 (stereo not given) | i | -1.2% | nt
CCOC(=O)C1C(=O)C=C(c2ccc(C)cc2)CC1c1ccco1 (stereo not given) | i | 5.1% | nt
CC(=O)c1c(C)[nH]c(C(=O)CSc2nc3ccccc3c(=O)n2CCCN2CCOCC2)c1C | i | 11% | 1.2
Cc1ccc(NC(=O)CSc2nnc(CN3CCOCC3)n2-c2ccccc2)cc1 | i | 2.3% | nt
Cc1ccc2c(n1)sc1c(N)ncnc12 | i | 2.2% | 0.39
O=C(C1CCCN(S(=O)(=O)c2cccc3cccnc23)C1)N1CCc2ccccc21 (stereo not given) | i | -0.5% | -0.24
Cc1ccc(C2CC2C(=O)NNC(=S)Nc2cccc(Cl)c2)cc1 (stereo not given) | i | 2.4% | nt
COc1ccc2[nH]c(=O)c(-c3noc(-c4ccc(F)cc4)n3)cc2c1 | i | -35% | -2.5
COc1ccc(Nc2cc(=O)n(C3CCCCC3)c(=O)[nH]2)c(OC)c1 | i | 2.4% | 0.45
Cc1ccc(S(=O)(=O)N2C(=O)CCC2C(=O)NCc2ccco2)cc1 (stereo not given) | i | -4.0% | 0.14
O=C(CCCc1c[nH]c2ccccc12)N1CCOCC1 | i | -0.8% | 0.27
Cc1ccc(C2OCC3(CO)COC(c4ccc(C)cc4)N23)cc1 (stereo not given) | i | 1.3% | nt
Clc1ccc(OCCSc2ncccn2)c2ccccc12 | i | -0.2% | nt
CCN(CC)CCOC(=O)C12CC3CC(CC(C3)C1)C2 | i | 0.8% | 0.79
N=C1C(c2nc(-c3ccc(Cl)cc3)cs2)=C(O)CN1CCCN1CCOCC1 | i | 6.6% | -0.66
Cc1ccc(-c2nnn(CCC(=O)Nc3ccc4c(c3)OCO4)n2)cc1 | i | 2.6% | 0.26
Cc1ccccc1C(=O)Nc1ccc(Cl)cn1 | i | 1.0% | -1.1
CCn1c(SCC(=O)NCc2ccco2)nnc1-c1cccs1 | i | -4.4% | -1.1
CCc1nc(C)cn1S(=O)(=O)c1cc(C)c(OC)c(C)c1C | i | 0.3% | nt
COc1ccc(C(=O)COC(=O)CN2C(=O)C3C4C=CC(C4)C3C2=O)cc1 (stereo not given) | i | -6.7% | -1.6
CN(C)c1ccc(-c2nn3c(-c4ccncc4)nnc3s2)cc1 | i | -7.1% | -1.4

Complete entries from above. Screens in order: MT1-MMP promoter	Hsc70 ATP site	WNV protease inh
CCc1nc(C)cn1S(=O)(=O)c1cc(C)c(OC)c(C)c1C in the list: i	0.3%	nt
Cc1ccc(C2OCC3(CO)COC(c4ccc(C)cc4)N23)cc1 (stereo not given) in the list: i	1.3%	nt

The listing continues.
SMILES | MT1-MMP promoter | Hsc70 ATP site | WNV protease inh
CCc1ccc(Cn2nnc(C(=O)Nc3cccc(C)c3)c2N)cc1 | i | -1.0% | -0.46
O=C(Nc1nc2ccccc2[nH]1)c1ccccc1F | + | 0.3% | 2.1
Cc1ccc(-c2csc3nnc(SCC(=O)NCc4ccco4)n23)cc1 | i | -5.5% | 0.41
Cc1nc2ncnn2c(C)c1CCC(=O)NCc1ccco1 | i | -2.5% | 0.73
O=c1c2c3c(sc2nc2sc(CN4CCOCC4)cn12)CCCC3 | i | 1.0% | 1.3
CCOC(=O)NC(c1ccccc1)C1CCCCC1=O (stereo not given) | i | 3.2% | -1
CCOC(=O)c1oc2c(CN3CCN(C)CC3)c(O)ccc2c(=O)c1-c1ccccc1OC | i | -2.9% | 0.39
Cc1cc(NC(=O)C(C)C)ncc1NC(=O)c1cccc(F)c1 | i | -4.6% | 0.09
COc1ccc(C(=O)Oc2ccc(/C=N/O)cc2)cc1 | i | -3.6% | -0.48
COc1ccccc1-c1nn2c(C3COc4ccccc4O3)nnc2s1 (stereo not given) | i | -4.1% | -0.5
Cc1ccc(C)c2[nH]c(=O)c(CCNC(=O)c3ccc(Br)o3)cc12 | i | -6.9% | 0.06
Cc1ccc(C)c(NC(=O)c2ccc3ccccc3n2)c1 | i | -1.2% | nt
COc1ccc(OC)c(C2N(c3cc(C)on3)C(=O)C3CCCN32)c1 (stereo not given) | i | 4.7% | 1
Cc1nc(N2CCc3ccccc32)[nH]c(=O)c1CCC(C)C | i | -1.0% | -1.2
COc1ccc(N2CCN(Cc3cc(=O)oc4cc(C)c(Cl)cc34)CC2)cc1 | i | 2.7% | 1.2
Cc1cc(C)n(C(=O)c2c([N+](=O)[O-])c(C)nn2C)n1 | i | 1.5% | nt
Cn1c(SCC(=O)c2ccccc2)nnc1-c1ccco1 | i | 0.4% | nt
COCCOC(=O)c1c(C)oc2ccc(NS(=O)(=O)c3ccccc3)cc12 | i | 1.4% | -1.7
COCCNc1cc(C)c(C#N)c2nc3ccccc3n12 | i | 2.9% | 2.7
CCOC(=O)c1cc(NC(=O)N(CC)CC)c(C)nc1C | i | -0.8% | nt
Cn1c(CCNC(=O)c2ccco2)nc2cc(NC(=O)NC3CCCCC3)ccc21 | i | -8.0% | -0.54
CC(=O)C(Sc1nc(-c2ccc(F)cc2)nc2c1c(=O)n(C)c(=O)n2C)C(C)=O | i | 2.9% | -1.2
Cc1ccccc1Nc1nnc(SCC(=O)NCc2ccco2)s1 | i | -2.5% | -0.54
CCOc1ccc(N(CC(=O)Nc2cccc(Cl)c2)S(=O)(=O)c2c(C)noc2C)cc1 | i | 1.8% | 0.18
CCc1nc(-c2ccccc2O)n(-c2ccccc2)n1 | i | 9.0% | 0.08
O=C(CS(=O)(=O)c1cn(Cc2ccc(Cl)cc2)c2ccccc12)N1CCCC1 | i | -2.2% | -0.86
CCOC(=O)CNS(=O)(=O)c1ccc(S(=O)(=O)N2CCCC2)cc1 | i | 3.8% | -1.2
O=C(Nc1ccc(Cl)c(C(F)(F)F)c1)NC1CC2CCCC(C1)N2C1CC1 (stereo not given) | i | -4.7% | nt
CCN(CC)C(=O)CSc1nnc(-c2cnccn2)n1-c1ccccc1 | i | -1.1% | -0.51
Cc1cc(C)n2cc(CSc3nnnn3-c3ccccc3)nc2n1 | i | -5.3% | -1.5
COc1cc(OC)cc(C(C(=O)NCc2ccccc2)N(Cc2ccco2)C(=O)c2ccno2)c1 (stereo not given) | i | -6.7% | 1
COc1ccc(CNC(=O)Nc2ccc(C)cc2)cc1 | i | -1.2% | 0.92
Cc1ccc2[nH]c3c(N4CCc5ccccc5C4)ncnc3c2c1 | i | 3.6% | nt
Cn1c(SCC(=O)Nc2cc(=O)n(C)c(=O)n2C)nnc1C12CC3CC(CC(C3)C1)C2 | i | -3.9% | 2.1
COc1ccccc1C1C(C(=O)c2cc3ccccc3o2)=C(O)C(=O)N1CCN1CCOCC1 (stereo not given) | i | 1.2% | 1.1
CCOCCCn1c(=N)c(C(=O)NCCN2CCOCC2)cc2c(=O)n3cccc(C)c3nc21 | i | -4.0% | 0.7
O=C(CN1C(=O)C2C3C=CC(C3)C2C1=O)NCc1ccco1 (stereo not given) | i | 1.3% | nt
Cc1cn(C(=O)CN2C(=O)c3ccccc3C2=O)c(C)n1 | i | -10% | 0.54
CCSc1nnc(NC(=O)C(Cc2ccccc2)n2cccc2)s1 (stereo not given) | i | -3.2% | -0.12
N#Cc1c2n(c(=S)n(-c3ccccn3)c1=O)CCCCC2 | i | -0.7% | -0.22
N#Cc1nc(COc2ccccc2Cl)oc1NCc1cccnc1 | i | 3.4% | nt
Cc1cc(-c2cccs2)c2c(n1)sc1c(=O)[nH]c(=O)[nH]c12 | i | -3.2% | 0.64
CC1CCc2nn(CC(=O)NCCCN3CCCC3=O)cc2C1 (stereo not given) | i | -1.2% | 0.29
Cc1c(Br)cc(C(=O)O)c(C)c1C | i | -2.4% | -1.5
CCn1c(SCC(=O)c2cccs2)nnc1-c1cccs1 | i | 2.4% | -0.94
Cc1occc1-c1nnc(SCc2nnc(-c3ccc(Cl)cc3)o2)n1C | i | -3.5% | 0.71
CN1CCN(C(=O)C2CC(=O)N(c3ccc(F)c(Cl)c3)C2)CC1 (stereo not given) | i | 4.4% | 0.89
O=C1c2ccccc2S(=O)(=O)N1Cc1cccc(S(=O)(=O)N2CCOCC2)c1 | i | 2.7% | 0.44
COc1ccccc1C(=O)Nc1ccc2c(c1)nc1n2CCSC1 | i | 4.1% | -0.09
O=C(CSc1ccc2nnc(-c3ccncc3)n2n1)NCc1ccco1 | i | -0.3% | 1.4
(next part)
SMILES | MT1-MMP promoter | Hsc70 ATP site | WNV protease inh
CS(=O)(=O)N(CCc1ccccc1)CC(=O)NCC1CCCO1 (stereo not given) | i | 7.7% | -1.1
CCC(C)NC(=O)c1ccc(CS(=O)(=O)c2ccc(OC)cc2)o1 (stereo not given) | i | -1.9% | 0.1
COc1ccc(C2c3c(oc4ccccc4c3=O)C(=O)N2CCCN2CCOCC2)cc1 (stereo not given) | i | -5.2% | -0.26
CN(CCC#N)C(=O)c1ccc(CNS(=O)(=O)c2ccc(F)cc2)cc1 | i | 1.2% | 0.39

This is a subset. The share of hits here may be higher or lower than overall.
